TRPML1 ag: qHTS for Agonists of the Human Mucolipin Transient Receptor Potential 1 (TRPML1); TRPML1-expressing cells, Ca2+ dye fluorescence, FDSS; host cell line not named in the record; reference of the full effect not given here; activation, % (test concentration not listed); Mucolipin-1 (Homo sapiens), Q9GZU1; 410,000 tested, 0.12% active; in the data active = activation above about 50%; inconclusive = about 30% to 50%; inactive = below about 30%; note: 0% is about no effect; the text of the record puts the active cut at 80%
Target sequence (Q9GZU1 whole entry, looked up): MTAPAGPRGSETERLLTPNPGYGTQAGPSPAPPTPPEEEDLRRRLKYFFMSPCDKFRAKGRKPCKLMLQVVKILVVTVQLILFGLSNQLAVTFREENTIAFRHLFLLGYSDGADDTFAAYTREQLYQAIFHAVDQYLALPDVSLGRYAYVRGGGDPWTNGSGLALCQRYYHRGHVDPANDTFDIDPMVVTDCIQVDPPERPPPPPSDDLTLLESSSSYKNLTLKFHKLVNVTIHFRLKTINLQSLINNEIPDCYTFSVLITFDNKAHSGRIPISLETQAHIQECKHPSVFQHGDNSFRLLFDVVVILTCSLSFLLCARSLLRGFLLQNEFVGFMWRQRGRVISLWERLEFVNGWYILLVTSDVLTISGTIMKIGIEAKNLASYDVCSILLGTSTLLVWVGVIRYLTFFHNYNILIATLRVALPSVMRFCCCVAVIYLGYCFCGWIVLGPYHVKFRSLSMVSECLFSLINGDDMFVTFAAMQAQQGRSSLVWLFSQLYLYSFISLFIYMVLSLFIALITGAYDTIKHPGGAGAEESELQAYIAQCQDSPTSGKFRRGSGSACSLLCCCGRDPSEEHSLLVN
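Tetracycline-induced TRPML1-DL cells are seeded and incubated overnight before loading with a no-wash Ca2+ dye and quencher. Agonist activity is taken from the 110 s fluorescence read following compound pin-transfer on an FDSS, before EC80 54-4 challenge.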
Six1-Eya2 blk: qHTS Assay for Inhibitors of the Six1/Eya2 Interaction; 360,000 tested, 0.56% active; activity change, % (test concentration not listed); AID 651725, 2012; AlphaScreen GST-Six1/His-Eya2 binding, biochemical; hits give low values; control for the full effect not named in the record; Homeobox protein SIX1 (Homo sapiens) + Protein phosphatase EYA2 (Homo sapiens), …; in the data active = activity change below about -65%; inconclusive = about -30% to -65%; inactive = above about -30%; note: % is set by controls: 0 for no effect and ±100 for the full control effect; compound concentration not given in the record
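Compounds are tested against tagged Six1 and Eya2 proteins bridged by glutathione donor and nickel acceptor beads; after a one-hour incubation at 37 °C without light, AlphaScreen emission is recorded.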
TRPML1 inh: qHTS for Inhibitors of the Human Mucolipin Transient Receptor Potential 1 (TRPML1); Mucolipin-1 (Homo sapiens), Q9GZU1; TRPML1-inducible cells, Ca2+ dye fluorescence, FDSS; hits give low values; inhibition of EC80 agonist-evoked calcium signal; activity change, negative = inhibition, % (concentration not given with the values); 390,000 tested, 0.02% active; in the data active means activity change below about -50%; inconclusive means about -30% to -50%; inactive means above about -30%;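 note: stimulus is agonist 54-4 at its EC80 concentration; % is set by controls: 0 for no effect and ±100 for the full control effect; compound concentration not given in the record; the text of the record puts the active cut at -80%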
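TRPML1-DL cells, Tet-induced overnight (~16 h, 37 °C) at 1,500 cells/well, were loaded with Ca8 no-wash dye plus quencher for 45-90 min at room temperature. Compounds were pinned during FDSS kinetic reading; agonist 54-4 at EC80 (4 uM final) then added.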
PINK1 expr mod: A Quantitative High throughput Screen to Identify Chemical Modulators of PINK1 Expression; PINK1 immunofluorescence, high-content cytometry, 24 h; Potency, µM (titrated, usually from 76.6 µM), for inactives: top-dose activation (PINK1 increase), most hits filed as activators; 410,000 tested, 0.2% active; AID 624263, 2012; active = well fitted activation curve with a large enough effect; inconclusive = small, poorly fitted or top-dose-only effect; inactive = flat fitted curve, though single readings scatter; cell line not stated here;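 note: potency is the fitted concentration of half-maximal effect; % of control where 0% means no effect; nearly all actives have a fitted effect of over 65% in size; a mitochondrial uncoupler was the plate control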
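Fluorescence from anti-PINK1 antibody, together with nuclear and cell stains, was scanned on a laser-scanning cytometer. Before staining, stable-line cells were incubated 24 hours with compounds at 5 concentrations; primary antibody 12 h at 10 degrees C.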
CtBP-E1A inh: qHTS Assay for Inhibitors of the CtBP/E1A Interaction; AlphaScreen GST-E1A/His-CtBP binding, 1536-well; hits give low values; control for the full effect not named in the record; 340,000 tested, 0.49% active; activity change, % (test concentration not listed); CtBP / adenovirus E1A interaction (AlphaScreen); in the data active means activity change below about -65%; inconclusive means about -30% to -65%; inactive means above about -30%; note: % is set by controls: 0 for no effect and ±100 for the full control effect; compound concentration not given in the record
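Protein mix (5X: 125 nM each GST-E1A, His-CtBP) was incubated with pinned compound 2 h at 37 deg C in dark, in 50 mM Tris pH 8.0 buffer with 300 mM NaCl. Glutathione donor and nickel acceptor beads followed; AlphaScreen signal read after 1 h.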
D2 agonist: Beta-Arrestin HTS for Positive Allosteric Modulators of the Human D2 Dopamine Receptor: Agonists | D(2) dopamine receptor (Homo sapiens), P14416 | DiscoveRx PathHunter D2 beta-arrestin, luminescence, 90 min; 100% = 57 uM dopamine signal | activation, % (no concentration beside the values) | 360,000 tested, 0.084% active | AID 624465, 2012; in the data active = activation above about 40%; inconclusive = about 15% to 40%; inactive = below about 15%; note: compound concentration not given in the record; the text of the record calls up to 30% inactive
Target sequence (P14416 whole entry, looked up): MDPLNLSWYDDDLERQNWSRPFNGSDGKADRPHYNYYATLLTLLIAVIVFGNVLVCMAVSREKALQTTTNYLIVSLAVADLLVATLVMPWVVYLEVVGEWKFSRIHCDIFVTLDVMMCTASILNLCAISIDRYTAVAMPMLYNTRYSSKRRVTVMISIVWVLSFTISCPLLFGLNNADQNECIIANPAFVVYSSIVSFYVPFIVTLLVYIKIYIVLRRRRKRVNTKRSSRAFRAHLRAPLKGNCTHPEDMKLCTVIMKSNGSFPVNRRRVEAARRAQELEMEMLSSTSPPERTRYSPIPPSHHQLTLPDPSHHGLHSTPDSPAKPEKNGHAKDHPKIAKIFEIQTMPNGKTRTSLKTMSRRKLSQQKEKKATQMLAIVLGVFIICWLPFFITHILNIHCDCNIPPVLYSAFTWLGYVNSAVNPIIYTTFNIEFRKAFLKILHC
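DiscoveRx PathHunter D2 beta-arrestin cells (2,100/well) attached overnight, then compound-stimulated 90 min at 37 C in HBSS/10 mM HEPES/0.1% Tween-20 buffer; beta-galactosidase complementation read by luminescence after 1 h at ambient temperature. Dopamine 57 uM final (EC100) as control.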
Numbers without * were called inactive; u = inconclusive; x = no result given; [ ] = dose if it differs, or a comment. Rows were taken by chance. Share with any hit: about 1%.

Under each structure – TRPML1 ag, Six1-Eya2 blk, TRPML1 inh, PINK1 expr mod, CtBP-E1A inh, D2 agonist
CN(C)CCNC(=O)c1[nH]nc2c1CCc1ccccc1-2
    0.0, -6, -6, -0.3%, 6, -1.8
CC(=O)C1=C(O)C(=O)N(c2ccc(O)cc2)C1c1ccccc1[N+](=O)[O-] (centres undefined)
    x, 0, x, 0.5%, x, -1.1
CCN(CC)CCn1c2c(c(SCC(=O)Nc3ccc(C)c(F)c3)nc1=O)CCCC2
    1.3, 3, -7, -7.3%, 11, -3.8
O=C(CN1C(=O)NC(c2ccccc2)(c2ccccc2)C1=O)Nc1ccc(N2CCOCC2)cc1
    0.6, -19, -8, 1.0%, -13, 5.7
O=C(NCC1CCCO1)c1ccc(NS(=O)(=O)c2cccs2)cc1 (centres undefined)
    -0.5, 0, -14, 0.4%, -24, -3.8
Cc1cc(C)c(NC(=O)c2cc(CN3CCOCC3)on2)c(C)c1
    0.2, x, 8, 1.1%, x, x
O=C(Cn1c(=O)n(-c2ccccc2)c(=O)c2c3c(sc21)CCCC3)Nc1cccc(F)c1
    -0.1, x, -6, 0.1%, x, x
COc1ccc(OC)c(-n2c(-c3cccc(S(=O)(=O)N(C)C)c3)n[nH]c2=S)c1
    1.2, 0, -14, -1.3%, -3, 1.3
COc1cccc(NC(=O)CN(C)C(=O)c2csc3c2CCCC3)c1
    2.2, -2, -18, -0.3%, -7, 5.3
COC(=O)c1ccc(COc2ccc(-c3nn[nH]n3)cc2)cc1
    0.1, 4, -8, -1.4%, 2, 0.8
COC(=O)c1ccccc1Oc1ccc(NC(=O)c2ccco2)cc1
    2.4, 12, 8, 0.6%, x, -0.1
Cc1ccc(N/N=C2\CS(=O)(=O)N(C)c3ccsc32)cc1
    -0.7, 4, 21, 18%, -6, u
CC(O)c1cccc(NC(=O)CCCc2ccccc2)c1 (centres undefined)
    1.7, 3, 0, 1.9%, x, -2.5
CCOc1ccccc1CNC(=O)CCc1cn(CC)c2ccccc12
    3.8, -8, 21, -1.9%, -15, 1.3
O=C(c1cccs1)N(c1ccc(Cl)cc1)C1C=CS(=O)(=O)C1 (centres undefined)
    -0.3, 7, -7, 0.3%, -4, 1.5
Cn1ncc2c(NCc3ccccc3)ncnc21
    -0.6, 1, 6, 1.3%[38.3 µM], 9, -0.1
FC(F)(F)c1cnc2c(c1)Nc1ccccc1S2
    -0.2, 0, -5, 0.5%, 7, -2.2
CCC(C)(C)n1nnnc1C(c1ccncc1)N1CCN(c2cccc(OC)c2)CC1 (centres undefined)
    1.6, -6, -6, 29%[38.3 µM], -3, 1.0
CCN(CC(=O)Nc1ccc(NC(C)=O)cc1)C(=O)/C=C/c1cn(Cc2ccccc2)nc1-c1cccnc1
    -0.6, -9, -7, -0.4%, -3, -0.4
O=C(c1cccs1)N1C[C@H](O)[C@@H](n2cc(-c3ccc(F)cc3)nn2)C[C@@H]1c1ccccc1
    0.5, -10, 0, -1.3%, -2, -6.7
CCC1CCCCN1CC(O)Cn1c2ccccc2n2c(=O)cc(C)c(C#N)c12 (centres undefined)
    -0.7, 12, 5, -0.5%, 4, -0.8
Cc1ccc(NC(=O)Nn2cnnc2)c(C)c1
    0.1, -2, u, -0.9%, -19, -4.5
CCc1ccccc1NS(=O)(=O)c1cc(C)ccc1OC
    0.7, -20, -3, 1.0%, 4, -4.5
Cc1ccc(-c2nc(CS(=O)(=O)CC(=O)NC3CCCCC3C)c(C)o2)cc1 (centres undefined)
    -1.6, -3, -9, -0.2%, 4, -6.5
CCNC(C(=O)c1c[nH]c2c(CC)cccc12)c1ccccc1 (centres undefined)
    0.2, -2, -12, 9.6%, -18, -9.6
CCCCn1c(N)c(N(CC(C)C)C(=O)CCNC(=O)c2ccc(Cl)cc2)c(=O)[nH]c1=O
    -1.3, 3, -8, 0.4%, 4, -0.9
CC(C)c1ccc(NC(=O)Nc2cnccn2)cc1
    1.3, -2, 10, 7.8%, 2, -9.1
CCOC(=O)c1cnc2ccc(OC(F)(F)F)cc2c1Nc1ccccc1C(=O)O
    -0.6, x, 18, 0.4%, x, x
Cc1ccc(-n2nc3c(=O)n(C(C)C(=O)NC4CC4)nc(C)c3c2C)cc1 (centres undefined)
    -0.1, 2, 1, 1.8%, -3, 4.6
CCCCN(C(=O)c1c(CC)noc1C)c1c(N)n(CC(C)C)c(=O)[nH]c1=O
    1.2, -1, 2, -1.3%, -3, 1.7
CCn1c(C)nc2c(C)[n+](CC(=O)c3ccc(Br)cc3)ccc21
    0.0, 0, -19, 2.9%, -1, -2.4
CC(C)Cn1c(N)c(C(=O)COC(=O)c2cc(S(=O)(=O)N3CCOCC3)ccc2Br)c(=O)n(C)c1=O
    0.8, -29, -11, -0.2%, -2, -0.4
C[C@H](CO)N1C[C@H](C)[C@H](CN(C)C(=O)Nc2cccc(C(F)(F)F)c2)OCc2cnnn2CCCC1=O
    -0.7, 1, -3, 8.1%, -6, -7.4
O=C(C[n+]1ccc(C(=O)N/N=C/c2ccc(OCc3ccccc3)cc2)cc1)c1ccccc1
    0.4, -4, -7, -2.8%[38.3 µM], 10, -0.6
Cc1nn(CCOc2ccccc2)c(=O)n1-c1ccccc1
    -0.7, 9, 21, u, 10, -2.5
Cc1cc(Br)ccc1OCc1nnc(-c2ccccc2)o1
    0.9, -3, 2, 3.1%, x, -3.2
COC(=O)c1ccc(Cl)c(S(=O)(=O)N2CCCC2)c1
    0.3, 1, 1, -1.5%, 6, 1.2
CCC(c1nnnn1CS(=O)(=O)c1ccc(C)cc1)N1CCC(C(N)=O)CC1 (centres undefined)
    0.2, 3, 6, 5.1%, -6, -4.7
Cc1ccc(NC(=O)C2CCN(S(=O)(=O)c3cccc(C(F)(F)F)c3)CC2)nc1
    2.0, 0, -3, 18%, 1, -4.1
CCCCn1c(N)c(N(CCOC)C(=O)c2cnc(C)cn2)c(=O)[nH]c1=O
    0.9, -2, -1, 0.5%, 10, -8.2
Nc1c(C(=O)c2ccc(Cl)cc2)sc2c1c(=O)[nH]c(=O)n2-c1ccccc1
    1.3, 4, 22, 1.4%, -1, -6.8
CC(=O)c1ccccc1OCCCOc1cccc2cccnc12
    x, 1, x, 2.8%, x, 4.3
Cc1cc(NS(=O)(=O)c2ccc(NC(=S)NC(=O)c3ccc(Cl)cc3Cl)cc2)no1
    -0.2, -12, 1, 1.3%, -1, -7.4
COc1ccc2c(c1)c(C(=O)N/N=C/c1ccc(O)c(O)c1)c(C)n2C
    0.5, -3, -5, 2.2%, -10, 4.0
Cc1ccc(NC(=O)COc2coc(CN3CCN(c4ccccc4)CC3)cc2=O)cc1
    0.9, -4, 3, 2.7%, 3, 0.6
Cc1cccc(NC(=O)CCNS(=O)(=O)c2cccc3nonc23)c1C
    0.5, 0, -5, 0.8%, 0, 3.5
CCOC(=O)C1=C(C)NC(C)=C(C(=O)OCC)C1C(=O)OCC(N)=O
    -0.5, 7, 7, 1.2%, 1, -4.1
CCOC(=O)N1CCN(C(=O)CNS(=O)(=O)c2c(C)cc(C)cc2C)CC1
    -0.6, 0, 5, -0.9%, 18, 1.5
Cc1cc(-c2n[nH]c(=S)n2Cc2ccccc2)cs1
    3.6, 2, -24, 1.0%, -1, 3.2
OCCCNc1cc(-c2ccnc(Nc3cccc(Cl)c3)n2)ccn1
    -0.4, -9, -7, -0.6%, -12, 0.8

Further results:
Under each structure – TRPML1 ag, Six1-Eya2 blk, TRPML1 inh, PINK1 expr mod, CtBP-E1A inh, D2 agonist
CCOC(=O)c1c(C)[nH]c(C(=O)COC(=O)C2(C)CC2(Cl)Cl)c1C (centres undefined)
    0.1, -3, -1, -37%[inhibitor][38.3 µM], -1, 0.5
Cc1ccc(C(=O)NCC(c2ccc(F)cc2)N2CCOCC2)cc1S(=O)(=O)N1CCOCC1 (centres undefined)
    0.9, 17, 14, 2.6%, 22, -1.1
Nc1ccc2sc(N)nc2c1
    0.4, 2, 24, 1.0%, 3, -1.1
CC(C)c1nc(SCC(=O)NCc2ccccc2)n[nH]1
    0.4, 7, 18, -0.6%, 17, 1.4
CCNC(=O)N(C)c1c(CC)nc2ccc(C(=O)N3CCN(C(C)=O)CC3)cn12
    -0.2, -1, x, -0.4%, 1, -2.0
CCN1C(=O)/C(=C2/C=Cc3ccccc3N2CC)SC1=S
    1.0, -84*, 2, -1.1%, x, -4.7
C=CCn1c(CCNC(=O)c2cccs2)nnc1SCC(=O)c1cccc([N+](=O)[O-])c1
    -0.3, -3, -12, 5.0%[38.3 µM], -12, -0.5
Cc1ccc(OCCn2ccnc2)c([N+](=O)[O-])c1
    0.0, 0, 25, -1.3%, 9, -3.2
CCCCCCn1cc(CN2CC(N(C)CCC)CS2(=O)=O)nn1 (centres undefined)
    -0.9, 3, x, 1.4%, 10, x
CC1CN(CCOc2ccccc2C(C)C)CC(C)O1 (centres undefined)
    1.2, -1, -10, 8.8%, 9, -3.0
Cc1cc(C)c(NC(=O)/C(C#N)=C/c2ccc(OCc3ccc(F)cc3)cc2)c(C)c1
    0.0, 0, 7, 2.1%, 4, -2.2
O=C(CSc1ccc(-c2ccc(Cl)cc2)nn1)NC1CCCC1
    0.9, 1, -13, 2.4%, -2, -3.9
Cc1cc2c(cc1C)NC(c1ccccn1)C1=C(CC(C)(C)CC1=O)N2 (centres undefined)
    -0.4, 1, -5, -1.4%, -1, -3.2
COc1ccc(-c2noc(-c3ccc(N4CCN(C)CC4)c([N+](=O)[O-])c3)n2)cc1
    -0.3, x, -9, -0.8%, x, x
CCOc1ccc(-c2nn(-c3ccccc3)cc2/C=C2\SC(N)=NC2=O)cc1C
    0.6, 1, 10, u, 7, 3.4
C=CCNC(=O)NC(=O)COC(=O)COc1ccc(Br)cc1F
    -0.6, 1, -10, 2.4%[38.3 µM], 2, -0.3
CCCCOc1ccc(C(=O)NCC(=O)NC2CC2)cc1
    -0.8, 2, -4, -1.0%, 6, -1.4
O=C(Nc1cccc(NC(=O)c2ccccc2Cl)c1)c1ccc(F)cc1
    0.9, 3, 15, -0.3%, -24, 2.8
COCCNc1nnc(SCC(=O)Nc2nnc(-c3ccccc3)o2)s1
    -0.3, -1, 0, 3.5%, -3, -2.4
CCOC(=O)N/N=C/c1cn(Cc2ccc(Cl)cc2)c2ccccc12
    1.8, 6, -5, 1.5%, 0, 3.7
CCCNC(=O)C1(C)CCN1C(=O)Cc1ccc(C(C)(C)C)cc1 (centres undefined)
    -0.4, 0, x, 0.3%, 9, -3.5
CCn1c(=O)c2c(cnn2C)c2ccccc21
    -0.6, -4, 11, -0.1%, -3, -1.9

From PubChem BioAssay
